# Bead autofluor: flagged as autofluorescent in microsphere protease counterscreen | 3.1% of 360,000 active | AID 624483 | fluorescence intensity (concentration not given with the values) | compound autofluorescence counterscreen, microsphere flow cytometry; active compounds read high;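 active = at least 3 SD above the mean of all compounds, about 16000 in these data; inconclusive = too few beads counted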;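 note: 100 nL of 1 mM stock went into each well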
# RN4220 kill: growth inhibition of S. aureus RN4220, primary screen, OD600. 0.33% of 330,000 active. inhibition, % (test concentration not listed). 16 h;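 active = z-score of -3 or lower and OD600 up to 0.18 on both plates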;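 note: plate controls were untreated cells for no effect and reference antibiotic for full effect; stock transfer was 100 nL into about 80 µL; one replicate is shown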
# PrP UTR inh: inhibition of PrP 5' UTR reporter expression. cell-based PrP 5' UTR mRNA reporter, plate reader. inhibition, % (test concentration not listed). 0.35% of 340,000 active. AID 488862, 2010;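 active = every replicate at 50% or more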;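 note: 0 = median of the neutral control wells; tested in H4 reporter cells; numbers are from one replicate; inactives centre near -14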
# Sa ugtP lethal: growth inhibition of ugtP-null S. aureus, primary screen, RN4220 ugtP deletion, OD600 | 0.54% of 330,000 active | growth inhibition, % (test concentration not listed) | 16 h; some inactives read as strong as hits;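 active = z-score under -3 and OD600 up to 0.15 on both plates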;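 note: plate controls were untreated wells for no effect and antibiotic for full effect; wells of about 80 µL received 100 nL stock; the first replicate is given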
# BJeLR viability: MLPCN primary cell-based screen for lethality selective to Ras in HRASV12 cells; BJeLR (HRASV12) viability, CellTiter-Glo ATP luminescence, 48 h; reference of the scale not given here; inhibition, % (no concentration beside the values); 0.17% of 300,000 active; AID 1554, 2009;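 active = replicate mean above 50%; inconclusive = above 50% but judged a plate artefact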;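 note: 50 nL library stock added to about 25 µL; numbers are from one replicate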
# Mtb hypoxia inh: PubChem AID 1159583; M. tuberculosis hypoxia-regulated fluorescent reporter, fluorescence; 0.1% of 300,000 active; fluorescence inhibition, % (concentration not given with the values);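 active = 35 to 45% if threefold the growth effect, above 45% if 1.5-fold the growth effect; inactive = the rest, general growth blockers included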;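 note: wells of about 50 µL received 100 nL stock; 0% = vehicle wells and 100% = reference inhibitor wells; whole bacteria with a GFP reporter of the hypoxia response; strong numbers were not always called active; many hits fall short of the cut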
# Mtb hypoxia inh growth: second read-out of Mtb hypoxia inh, no call of its own (marks repeat the call); growth inhibition, %; measured here: M. tuberculosis growth (absorbance);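 0% = vehicle and 100% = reference antibiotic; read after six days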
# * hit, by the source's call; ? = inconclusive; . = not tested or not shown; & = joins results of further samples.
SMILES,Bead autofluor,RN4220 kill,PrP UTR inh,Sa ugtP lethal,BJeLR viability,Mtb hypoxia inh,Mtb hypoxia inh growth
Cc1ccc(SCC(=O)OCC(=O)N(C)CC(=O)Nc2ccccc2Cl)cc1C,4065,3.4,-24,5,7,5,-10
COc1ccc(NC(=O)C2(N(CC(C)C)C(=O)Cn3nnnc3N)CCCCC2)cc1,4697,-1.1,-9,-5,-2,.,.
Cc1nn(-c2ccccc2)c(C)c1C(=O)NNC(=O)C(F)(F)F,3503,3.5,-29,4,-4,-7,-4
CCc1nn(C(CC)C(=O)NCCCN2CC(C)CC(C)C2)c(=O)c2cc3oc(C)cc3n12 (configuration not stated),4494,0.7,-11,4,-6,-3,6
O=C(NC1CCCC1)C(=O)N(Cc1cccnc1)C(C(=O)NCC1CCCO1)c1ccco1 (configuration not stated),4382,7.3,-15,13,-1,14,4
CC(C)OCc1c(C(=O)OC/C(O)=C(\C#N)c2nc3ccccc3[nH]2)oc2ccccc12,5007,0.3,4,-8,2,-4,5
Cc1nn(CC(=O)c2ccc3c(c2)OCCO3)c(=O)c(C#N)c1C,3931,4.0,-28,0,.,6,2
CC(=O)c1cccc(Nc2ccc(-c3ccccc3F)nn2)c1,4348,0.5,-63,6,10,4,7
CCOC(=O)CCCOC(=O)c1ccc(S(=O)(=O)N(C)C)cc1,9780,-0.3,-15,-4,-4,-8,-2
Cc1cc(C)c(O)c(-c2cc(C(=O)NCc3ccccc3)[nH]n2)c1,3323,-17,-11,5,-3,16,3
CCO[C@@H]1OC(C(=O)NCc2nc3ccccc3[nH]2)=C[C@H](C(C)(C)C)[C@H]1CCCO,2738,-14,9,-4,28,10,1
CC(/C=C/c1ccccc1)=N\NC(=O)c1ccc2c(c1)OCCO2,2775,.,-31,.,-4,.,.
CCC(=NCCc1c(C)[nH]c2ccc(C)cc12)C1=C(O)CC(c2ccccc2)CC1=O (configuration not stated),2208,0.5,-12,-10,28,10,-7
O=C1NC(c2ccc(-c3ccccc3[N+](=O)[O-])o2)C(C(=O)c2ccccc2)C(O)(C(F)(F)F)N1 (configuration not stated),2281,7.2,-11,-7,-10,-5,5
O=C(NN=Cc1cccc2ccccc12)c1ccccc1Cl,.,5.2,.,4,.,9,5
N#CCSc1nc2c(c(C3CC=CCC3)c1C#N)CCC2 (configuration not stated),?,-0.2,-16,34,5,10,1
Cc1cccc(C)c1NC(=O)CN1C(=O)NC(C)(CCc2ccccc2)C1=O (configuration not stated),4288,3.6,-37,4,1,2,1
Cc1ccc(-c2csc(NC(=O)Cc3ccc(F)cc3)n2)o1,3704,1.5,-31,3,-6,9,4
Cc1cc(NC(=O)NCc2ccccc2)c(=O)n(Cc2ccccc2F)c1,.,7.2,-24,9,2,-14,-3
CC(Sc1nnnn1C)C(=O)Nc1cc(S(=O)(=O)N2CCCCC2)ccc1Cl (configuration not stated),3990,5.4,-13,5,.,2,-2
CCOC(=O)N1CCN(C(=O)c2cn(C)c3ccc(S(=O)(=O)N4CCCC4)cc3c2=O)CC1,19920*,4.0,-16,-3,2,8,9
COC(=O)c1c(CCl)noc1C(=O)NCC1CCCO1 (configuration not stated),3055,6.7,-27,7,.,.,.
COc1cnc(-c2cccc(C(F)(F)F)c2)[nH]c1=O,3388,0.0,-20,4,-3,4,2
Cc1occc1-c1nnc(SCC(=O)NC2CCC(C)CC2)o1 (configuration not stated),3775,-2.4,-15,11,.,26,41
Cc1ccccc1NN=Cc1c(C)nc2ccccn12,.,1.8,.,3,.,-7,-3
CCC(=O)NS(=O)(=O)c1cccnc1Nc1ccccc1Cl,5153,1.6,-16,0,10,.,.
CCCc1cc(=O)[nH]c(SCC(=O)N2CCN(S(=O)(=O)c3ccc(C)cc3C)CC2)n1,2043,4.0,-16,-6,-1,12,11
Cc1cc(Cl)ccc1OCc1cn2cccnc2n1,4238,3.9,-66,2,7,0,14
COc1cc(-n2c(C)nc3cccnc32)c(Cl)cc1C(=O)O,3877,1.3,7,4,7,-3,1
Cc1c(NS(=O)(=O)c2ccccc2)ccc([N+](=O)[O-])c1Cl,3900,78,-45,75,.,17,14
Cc1cc(C(=O)NN=Cc2ccc(OCc3ccccc3)cc2)c(C)o1,.,-2.0,.,0,.,-1,10
CCOc1ccc(NC(=O)COC(=O)Cc2ccsc2)cc1,6101,3.9,-19,5,.,3,2
CCOC(=O)c1ccc(-n2cncn2)nc1,3074,2.9,-13,2,-13,13,11
CSc1ccccc1NC(=O)CN(C)C(C)C(=O)Nc1ccc(C#N)cc1 (configuration not stated),3829,5.8,-5,3,4,2,6
Cc1sc2nc(CSCC(=O)Nc3ccccc3C#N)[nH]c(=O)c2c1C,1978,5.4,10,7,3,12,7
CC#CCN1c2ccccc2[C@]23C[C@@H](C(=O)OC)N(C(=O)NC4CCCCC4)C2=NC(C(=O)OC)=C(C(=O)OC)[C@H]13,2809,.,-4,.,-8,.,.
CC1=CC(C)(C)N(C(=O)CSc2nnc(-c3ccc(C)cc3)o2)c2ccc(C)cc21,2480,2.5,-6,-8,2,.,.
CCOc1ccc(-n2c(O)c(N=Nc3ccc([N+](=O)[O-])cc3)c(=O)[nH]c2=O)cc1,4636,6.6,-20,-6,11,5,9
CCn1c2ccccc2c2cc(NC(=O)CSc3nnc(-c4cccc(OC)c4)n3N)ccc21,8957,4.0,-19,9,-3,2,2
Nc1cc2c3c(cccc3c1)C(=O)N(CCN1CCCC1)C2=O,3536,-1.9,-15,6,38,10,-13

# Pulled one by one from the entries so far (six):
SMILES,Bead autofluor,RN4220 kill,PrP UTR inh,Sa ugtP lethal,BJeLR viability,Mtb hypoxia inh,Mtb hypoxia inh growth
O=C1NC(c2ccc(-c3ccccc3[N+](=O)[O-])o2)C(C(=O)c2ccccc2)C(O)(C(F)(F)F)N1 (configuration not stated),2281,7.2,-11,-7,-10,-5,5
CC#CCN1c2ccccc2[C@]23C[C@@H](C(=O)OC)N(C(=O)NC4CCCCC4)C2=NC(C(=O)OC)=C(C(=O)OC)[C@H]13,2809,.,-4,.,-8,.,.
Cc1ccccc1NN=Cc1c(C)nc2ccccn12,.,1.8,.,3,.,-7,-3
O=C(NN=Cc1cccc2ccccc12)c1ccccc1Cl,.,5.2,.,4,.,9,5
Cc1cccc(C)c1NC(=O)CN1C(=O)NC(C)(CCc2ccccc2)C1=O (configuration not stated),4288,3.6,-37,4,1,2,1
Cc1cc(C)c(O)c(-c2cc(C(=O)NCc3ccccc3)[nH]n2)c1,3323,-17,-11,5,-3,16,3

# Next entries:
SMILES,Bead autofluor,RN4220 kill,PrP UTR inh,Sa ugtP lethal,BJeLR viability,Mtb hypoxia inh,Mtb hypoxia inh growth
CC(=NNc1ccc(S(N)(=O)=O)cc1[N+](=O)[O-])c1ccc2c(c1)OCO2,.,5.5,.,13,.,16,12
O=C(NN=Cc1ccc(-c2cccc([N+](=O)[O-])c2)o1)[C@H]1C[C@@H]1c1ccccc1,.,-5.8,.,-26,.,-8,12
O=c1[nH]c(Sc2ccc([N+](=O)[O-])cc2[N+](=O)[O-])nc2ccccc12,3198,2.5,-1,-1,-6,6,7
NC(=O)c1ccsc1NC(=O)CSc1nnc2ccccn12,4185,3.8,-4,4,-8,6,7
O=C(CCOc1ccccc1)Nc1ccnn1C1CCN(C(=O)CCC(F)(F)F)CC1,5251,-2.5,-8,11,10,2,1
Cc1ccc(-c2nnn(CC(=O)NC3CCCc4ccccc43)n2)cc1 (configuration not stated),3335,6.4,7,8,-11,6,6
Cc1ccc(-c2nc3ccccc3[nH]2)cc1NC(=O)/C=C/c1ccco1,8111,10,-9,-16,-6,9,6
COC(=O)c1ccccc1NS(=O)(=O)c1ccc2c3c(cccc13)C(=O)N2,11143,5.6,-18,-5,1,7,2
O=C(Nc1ccc2c(c1)OCO2)C1CCCN(S(=O)(=O)c2cccs2)C1 (configuration not stated),2344,3.6,-7,0,-4,.,.
CCN(CC)c1ccc(N)cc1S(=O)(=O)Nc1ccccc1OC,4644,2.1,-17,1,-5,9,1
CCCCc1cc(=O)oc2cc(C)cc(OCC(=O)N[C@@H](CSCc3ccccc3)C(=O)O)c12,4141,3.4,-9,14,-3,.,.
Cc1cc(NCc2ccccn2)n2ncc(-c3ccccc3)c2n1,4148,1.7,-76,-4,-1,2,20
CCN1C(=O)CS/C1=C(\C#N)S(=O)(=O)c1ccccc1,4255,0.7,-30,-1,10,.,.
CC(NC(=O)c1ccc(Br)s1)c1ccncc1 (configuration not stated),4035,4.2,-4,5,4,-3,-14
COC(=O)c1ccc(NC(=O)CSc2nnc(C)n2-c2ccccc2)cc1,19301*,7.0,-3,1,9,8,3
CC1=NNC(=O)C1CC(=O)N/N=C(/C)c1cccc([N+](=O)[O-])c1 (configuration not stated),3328,.,-30,.,1,.,.
CCc1ccc(NC(=O)C(=O)NCC2CCCO2)cc1 (configuration not stated),3357,6.0,-33,-3,2,14,9
FC(F)(F)c1ccc(N2CCOCC2)c(Nc2nc3ccccc3n3cnnc23)c1,10438,-4.3,-3,-24,-7,-22,0
O=C(CN1C(=O)COc2ccc(S(=O)(=O)N3CCCCC3)cc21)NCc1ccc(Cl)cc1,6158,2.9,6,-13,-21,-6,2
Cc1cc(N2CCCC2)ccc1NC(=O)COc1ccc(Cl)cc1,12923,2.4,1,3,.,-3,14

# Single records, as listed above. Screens in order: Bead autofluor	RN4220 kill	PrP UTR inh	Sa ugtP lethal	BJeLR viability	Mtb hypoxia inh	Mtb hypoxia inh growth
# Profile of FC(F)(F)c1ccc(N2CCOCC2)c(Nc2nc3ccccc3n3cnnc23)c1 = 10438	-4.3	-3	-24	-7	-22	0
# Profile of CCCCc1cc(=O)oc2cc(C)cc(OCC(=O)N[C@@H](CSCc3ccccc3)C(=O)O)c12 = 4141	3.4	-9	14	-3	.	.
# Profile of Cc1cc(N2CCCC2)ccc1NC(=O)COc1ccc(Cl)cc1 = 12923	2.4	1	3	.	-3	14

# Other compounds:
SMILES,Bead autofluor,RN4220 kill,PrP UTR inh,Sa ugtP lethal,BJeLR viability,Mtb hypoxia inh,Mtb hypoxia inh growth
COc1ccc(C(C)=O)c2c1OCCO2,3763,2.0,-4,-6,12,.,.
CC1(C)CC(=O)C=C(NCCc2ccc(S(N)(=O)=O)cc2)C1,4406,1.5,-13,10,1,.,.
CC1(C)SC2c3ccccc3C(=O)N2[C@@H]1C(=O)NC1CC1 (some centres not stated),5157,-1.0,-24,2,0,-1,-2
O=C(COc1ccccc1)NNC(=S)NC(=O)c1ccc(Cl)cc1Cl,.,51,.,29,6,9,4
COc1cccc(C(=O)Nc2ccc(C)cc2)c1,11261,6.5,-48,-1,7,-12,-3
Cc1cc(C)cc(NC(=O)N2CCC(NC(=O)c3ccco3)CC2)c1,3201,5.2,-20,10,-9,5,2
O=c1[nH][nH]c(C(F)(F)F)c1C=NCc1cccs1,2265,1.0,-13,-1,2,-6,-6
O=Cc1ccc(N2CCCCC2)cc1,4918,0.2,-13,-3,7,-21,-4
O=C(NCc1nc2ccccc2[nH]1)C1=CC(c2ccc3c(c2)OCO3)CC(OCc2ccc(CO)cc2)O1 (configuration not stated),.,-1.2,.,6,.,7,3
Cc1nnc(SCc2cc(=O)[nH]c(N3CCCCC3)n2)s1,8643,0.5,-10,-3,1,6,7

# A few values from the results shown.
# O=C(COc1ccccc1)NNC(=S)NC(=O)c1ccc(Cl)cc1Cl | Mtb hypoxia inh = 9
# CC1(C)CC(=O)C=C(NCCc2ccc(S(N)(=O)=O)cc2)C1 | BJeLR viability = 1
# Cc1cc(C)cc(NC(=O)N2CCC(NC(=O)c3ccco3)CC2)c1 | Mtb hypoxia inh growth = 2
# COc1ccc(C(C)=O)c2c1OCCO2 | RN4220 kill = 2.0
# CC1(C)SC2c3ccccc3C(=O)N2[C@@H]1C(=O)NC1CC1 (some centres not stated) | Sa ugtP lethal = 2
# O=C(NCc1nc2ccccc2[nH]1)C1=CC(c2ccc3c(c2)OCO3)CC(OCc2ccc(CO)cc2)O1 (configuration not stated) | Sa ugtP lethal = 6
# Cc1nnc(SCc2cc(=O)[nH]c(N3CCCCC3)n2)s1 | Bead autofluor = 8643

# Further compounds:
SMILES,Bead autofluor,RN4220 kill,PrP UTR inh,Sa ugtP lethal,BJeLR viability,Mtb hypoxia inh,Mtb hypoxia inh growth
COCCSc1ccccc1C(=O)N1CCCC(C)C1 (configuration not stated),4223,-2.7,-11,0,1,-2,-7
Cc1cccc(N/C(N)=N/c2nc3c(c(=O)[nH]2)CCCC3)c1,9833,5.1,-22,-10,2,4,15
N#Cc1ccccc1CSc1nc2ncc(Br)cc2[nH]1,3982&5366,4.3,-30,-6,7,3,3
CNc1cc(C)nc(N2CCOCC2)n1,6016,15,-14,-2,3,9,-4

# Screening results deposited in PubChem BioAssay by several laboratories.
